Bioassay records (PubChem)
miR-21 reporter – raises the signal of a miR-21 reporter; HeLa miR-21 FLuc reporter, luciferase, 48 h; Potency, µM (highest dose often 38.3 µM), without a hit: top-dose reporter change, positive = more light; 340,000 tested, under 10 active; active = well fitted rising curve with a large enough effect; inconclusive = small, poorly fitted or top-dose-only effect; inactive = no such curve, though single readings can be large or run the other way;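 note: % of control where 0% means no effect; miR-21 action dims this reporter so a rising signal means less miR-21 action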
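HeLa cells stably expressing CMV-driven firefly luciferase with a downstream miR-21 binding sequence, endogenously expressing miR-21, were treated with titrations (up to about 40uM final) for 48 hours at 37 degree Celsius. Luciferase luminescence was read after lysis.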
Rango-impB inh – inhibitors of Rango-importin beta complex formation | Potency, µM (highest dose often 92.2 µM), inactives show at the top dose inhibition of complex formation | 340,000 compounds, 0.031% hits | AID 540263 | Rango CFP/YFP FRET sensor + importin beta, 45 min | Q14974; active = rising FRET ratio curve, often small or poorly fitted; inconclusive = mostly compound fluorescence or quenching in the first reads; inactive = flat curves in all reads;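 note: potency is the fitted concentration of half-maximal effect; 0% = DMSO wells and 100% = buffer wells lacking importin beta; nearly all actives have a fitted effect of over 15% in size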
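Inhibition scored from the CFP 486 nm/YFP 530 nm FRET ratio 45 min after adding 0.125 microM importin beta to 50 nM Rango biosensor preincubated 5 min with compound (room temperature, PBS with DTT, Tween-20, BSA). No-importin wells as positive control.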
GLA inh pH 4.5 – inhibitors of human alpha-galactosidase A at pH 4.5; P06280; purified enzyme, 4-MU-alpha-Gal fluorescence, pH 4.5; activity change, negative = inhibition, % at 105 µM; 230,000 tested, under 10 active; inconclusive = small, poorly fitted or top-dose-only inhibition, or a rising curve; inactive = flat fitted curve, though single readings scatter; no compound was filed as active;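 note: 0% = full activity with enzyme and -100% = basal without enzyme; dose as in the result columns while the protocol names 77 µM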
Target sequence (P06280 whole entry, looked up): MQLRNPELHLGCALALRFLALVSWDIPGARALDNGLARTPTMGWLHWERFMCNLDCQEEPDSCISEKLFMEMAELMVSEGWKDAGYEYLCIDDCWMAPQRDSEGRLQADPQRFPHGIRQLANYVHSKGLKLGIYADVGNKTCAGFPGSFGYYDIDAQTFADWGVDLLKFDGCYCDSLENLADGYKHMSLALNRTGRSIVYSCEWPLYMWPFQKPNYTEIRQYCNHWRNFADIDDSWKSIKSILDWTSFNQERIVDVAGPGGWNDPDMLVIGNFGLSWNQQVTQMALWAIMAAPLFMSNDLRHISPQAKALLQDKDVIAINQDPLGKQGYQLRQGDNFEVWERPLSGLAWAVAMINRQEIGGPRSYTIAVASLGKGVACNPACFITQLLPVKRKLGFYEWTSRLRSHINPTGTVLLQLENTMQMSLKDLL
Rango dissoc inh – inhibition of RanGTP-driven Rango-importin beta dissociation. O95149+P62826. Biochemical FRET Rango-importin beta, RanGTP-induced dissociation. Potency, µM (highest dose often 46.1 µM), inactives show at the highest dose activity change, negative = inhibition. 340,000 compounds, 0.071% hits; active means falling FRET ratio curve, often poorly fitted, with flat reads before Ran was added; inconclusive means other falling curves, or compound fluorescence or quenching; inactive means flat or rising ratio curve;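 note: potency is the fitted concentration of half-maximal effect; % of control where 0% means no effect; nearly all actives have a fitted effect of over 45% in size; -100% = wells without RanGTP and RCC1; the record marks most hits as doubtful in a second field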
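Compounds preincubate 5 min with complex of recombinant Rango and importin beta in PBS with 1 mM DTT. Ran (0.6 uM) loaded with 2 mM GTP plus 0.2 uM RCC1 starts dissociation; FRET is recorded 45 min later.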
* hit, by the source's call; u = inconclusive; x = no result given; [ ] = another dose, or the depositor's remark. Not all compounds are listed (hit frequency here may not be typical).

miR-21 reporter	Rango-impB inh	GLA inh pH 4.5	Rango dissoc inh	mol
x	2.1%	x	6%	C[C@H](CO)N1C[C@H](C)[C@@H](CN(C)Cc2ccncc2)Oc2c(NS(=O)(=O)c3cn(C)cn3)cccc2C1=O
-63%	-0.5%	-6	0%	CC1Cc2ccccc2N1C(=O)COc1ccc2c(c1)OCO2 (stereo unspecified)
0%	-0.3%	-7	9%	O=C(NCc1ccccc1)C1=C[C@H](c2ccc(Br)cc2)C[C@H](OCc2ccc(CO)cc2)O1
x	-1.8%	x	-13%	Cc1cc(N(C)C)nc(Nc2ccccc2)n1
-6%	0.3%	-2	-10%	Cc1ccc(S(=O)(=O)c2cc(N3CCOCC3)nc(-c3ccccc3)n2)cc1
x	-2.1%	x	7%	CCCCCCCCN1[C@@H](CC(=O)O)c2ccc(C(F)(F)F)cc2S1(=O)=O
-2%	u	-9	u	S=C(NCCN1CCOCC1)N/N=C/c1c2ccccc2cc2ccccc12
-51%	6.1%	9	-17%	Oc1ccccc1-c1nnc(COc2ccc(Cl)cc2Cl)o1
-1%	3.0%	-2	-14%	Cc1ccc(NC(=O)NCc2ccc3c(c2)OCO3)c(C)c1
x	3.0%	x	13%	COc1ccc(CNC(=O)C(C)N2C(=O)NC3(CCCCCCC3)C2=O)cc1 (stereo unspecified)
x	-2.6%	x	1%	Cc1ccc(S(=O)(=O)N2CCC(C(=O)Nc3ccc(S(=O)(=O)N4CCOCC4)cc3)CC2)cc1
-4%	-0.6%	-6	3%	CC1(C)Cc2cccc(OCC(=O)Nc3cccnc3Cl)c2O1
x	-0.2%	x	-10%	CSc1ncccc1C(=O)OCC(=O)c1[nH]c(C)c(C(C)=O)c1C
-5%	-0.7%	x	0%	COc1ccc(OC)c(S(=O)(=O)N2CCC(C(=O)NCc3ccc4c(c3)OCO4)CC2)c1
-2%	1.1%	3	12%	Cn1c(=O)n(-c2cccc(Cl)c2)c(=O)c2c3c(sc21)COC(C)(C)C3
-3%	3.0%	3	-16%	Cc1csc(SCC(=O)NC2CCCCC2)n1
-2%	-0.9%	-5	5%	O=C1CSC(c2ccc(Cl)cc2)N1c1cccnc1 (stereo unspecified)
-4%	u	-2	-1%	CN1CCN(C(=S)SCC(=O)Nc2nc(-c3ccccc3)c(-c3ccccc3)o2)CC1
-5%	-7.0%	4	9%	CCCCn1c(SCC(=O)NC(=O)NCc2ccco2)nc2cc(S(N)(=O)=O)ccc21
-2%	6.0%	7	-9%	COc1ccccc1/C=N/NC(=O)c1sc(C)nc1C
-3%	0.9%	-6	-4%	Cc1cccc2cc(=O)[nH]c(C)c12
u	0.5%	-3	-6%	Cc1ccc(-n2nnnc2Sc2ccc(S(=O)(=O)NCCN(C)C)cc2[N+](=O)[O-])cc1
-21%	-0.2%	5	-9%	C#CCNC(=O)C1=C[C@H](c2ccccc2)C[C@H](OCCCCO)O1
-12%	-1.1%	-9	5%	CC1CCCCC1N=CC1=C(O)CC(C)(C)CC1=O (stereo unspecified)
-1%	5.1%	x	4%	Cc1ccc(CNC(=O)C(NS(=O)(=O)c2cccc3nsnc23)C(C)C)cc1 (stereo unspecified)
0%	0.2%	x	10%	CCC1CCCCN1CCCNC(=O)Cn1c(=O)c2cccn2c2cccnc21 (stereo unspecified)
x	1.2%	x	4%	O=C(Nc1cccc(Br)c1)C1CCCC1
15%	5.7%	-6	2%	Cc1ccc(C(=O)CC(=O)c2cccc(F)c2)c(O)c1
-4%	-6.4%	1	-28%	O=C(CNS(=O)(=O)c1ccccc1)Nc1ccc(C(F)(F)F)cc1
-2%	5.7%	0	20%	CC(C)=CCN1CCN(Cc2cccc3nonc23)CC1CCO (stereo unspecified)
-8%	u	2	-8%	COc1ccccc1Nc1nnc(SCC(=O)N2CCCC2=O)s1
x	0.5%	x	3%	O=C(COC(=O)c1ccc(F)c(S(=O)(=O)N2CCOCC2)c1)c1ccccc1
-32%	0.7%	-12	1%	O=C(NCCc1ccccc1)c1nc2nc(-c3cccs3)cc(C(F)(F)F)n2n1
-1%	-1.0%	4	17%	COCCNC(=O)C(=O)c1c(-c2ccccc2)[nH]c2ccccc12
-1%	1.9%	1	-9%	Cn1nc([N+](=O)[O-])nc1Oc1ccc2ccccc2c1
-3%	-5.5%	-9	-4%	CCN(CC)S(=O)(=O)c1ccc(C(=O)OCCNC(=O)c2cccnc2)cc1
x	1.3%	x	-2%	COC(=O)[C@@]12CCCCN1[C@H](c1ccc(-c3ccc4c(c3)OCO4)c(OC)c1)[C@@H]1C(=O)N(C)C(=O)[C@@H]12
-2%	2.4%	x	17%	O=[N+]([O-])c1ccc(Cl)c(-c2ccc(/C=N/n3cnnc3)o2)c1
-9%	-0.8%	-4	17%	CCN(CC)C1=NC=CC(c2ccccc2)=CC1C (stereo unspecified)
2%	-0.5%	3	0%	O=C(COC(=O)/C=C/c1ccc(Cl)cc1)NCCN1C(=O)CSC1=O
-10%	-0.7%	x	21%	Cc1ccn2c(=O)c(C(=O)NCCC3=CCCCC3)c(O)nc2c1
x	-1.2%	x	-15%	O=C(NCC(c1ccc(F)cc1)N1CCOCC1)c1cccnc1Sc1ccc(Cl)cc1 (stereo unspecified)
-8%	0.8%	1	0%	CC(C)c1ccc(S(=O)(=O)c2ccc(NN)cc2)cc1
3%	0.4%	x	-5%	CC(C)(C)c1ccc(OCCC(=O)NCCc2ccc(S(N)(=O)=O)cc2)cc1
2%	8.1%	0	2%	Cc1ccccc1NC(=O)CSc1nc(COc2ccccc2)nc2ccccc12

5 compounds already listed, arranged by length of the SMILES, high to low.
miR-21 reporter	Rango-impB inh	GLA inh pH 4.5	Rango dissoc inh	mol
x	1.3%	x	-2%	COC(=O)[C@@]12CCCCN1[C@H](c1ccc(-c3ccc4c(c3)OCO4)c(OC)c1)[C@@H]1C(=O)N(C)C(=O)[C@@H]12
x	0.5%	x	3%	O=C(COC(=O)c1ccc(F)c(S(=O)(=O)N2CCOCC2)c1)c1ccccc1
-2%	2.4%	x	17%	O=[N+]([O-])c1ccc(Cl)c(-c2ccc(/C=N/n3cnnc3)o2)c1
2%	-0.5%	3	0%	O=C(COC(=O)/C=C/c1ccc(Cl)cc1)NCCN1C(=O)CSC1=O
-8%	0.8%	1	0%	CC(C)c1ccc(S(=O)(=O)c2ccc(NN)cc2)cc1

Carrying on.
miR-21 reporter	Rango-impB inh	GLA inh pH 4.5	Rango dissoc inh	mol
-1%	-3.5%	-15	10%	COC(=O)C(NC(C)=O)(Nc1nc2ccc(C)cc2s1)C(F)(F)F (stereo unspecified)
0%	-0.7%	-4	1%	CCOc1ccc(S(=O)(=O)N2CCN(c3ccc(OC)cc3)CC2)c2cccnc12
0%	-0.1%	3	18%	CCN1C(=O)[C@@H]2[C@H](C1=O)[C@@H]1C[C@H]3C(=O)N(CC)C(=O)[C@H]3[C@@H]3C1=C(C(=O)N1C(=O)OC(=NCC4CC4)[C@]31C)[C@@H]2C
1%	-6.8%	x	1%	CCC(C)(C)C1CCC(NC(=O)N2CCN(c3ccccc3O)CC2)CC1 (stereo unspecified)
6%	-0.9%	x	2%	Cn1ncc(Cl)c1C(=O)N1CCN(c2cccc(Cl)c2)CC1
-1%	-0.1%	4	-13%	O=C(NCc1ccco1)Oc1ccccc1
11%	-1.9%	4	-4%	COc1cccc(/C=N/Nc2nc(-c3cccnc3)nc3ccccc23)c1
-1%	-2.8%	-9	-7%	CCn1c(C)[n+](CCOC(C)=O)c2cc(Cl)c(Cl)cc21
x	0.0%	x	-1%	CS(=O)(=O)N1CCC2CC1c1cc(-c3ccccc3)ccc12 (stereo unspecified)
29%	0.1%	-15	22%	Cc1ccccc1NCC(=O)N/N=C\c1ccc([N+](=O)[O-])s1
x	-1.0%	x	14%	CSc1cccc(NC(=O)COC(=O)C2(c3ccccc3)CC2)c1
-1%	3.9%	x	14%	CCn1c(CC(=O)Nc2ccc(F)cc2)nnc1SCC(=O)Nc1nnc(C)s1
3%	-0.6%	2	11%	CN(C(=O)CS(=O)(=O)Cc1ccccc1Cl)c1ccccc1
9%	-1.5%	-1[21.1 µM]	-6%	Cc1ccc(C(=O)N2CCC(Cc3ccccc3)CC2)cc1[N+](=O)[O-]
30%	0.1%	x	-6%	CCOc1ccc2[nH]cc(C(=O)NCc3ccc(F)cc3)c(=O)c2c1
-2%	6.2%	0[21.1 µM]	0%	Cc1nnc(SCC(=O)NC2CCS(=O)(=O)C2)n1Cc1ccccc1 (stereo unspecified)
-7%	-0.8%	1	-3%	CCOC(=O)c1nnc(-c2ccccc2)o1
-1%	3.6%	-9	-8%	COc1ccc(OC)c(-c2csc(NC(=O)CSc3ccc([N+](=O)[O-])cc3)n2)c1
0%	-1.6%	-1	2%	CN(C)c1ccc(CNn2cnnc2SCC(=O)NC(C)(C)C)cc1
-17%	1.1%	x	7%	CC(=O)c1nc2ccccc2n1Cc1ccccc1
-38%	u	-14	u	COc1cccc(C(=O)/C=C/Nc2cc(C)ccc2O)c1
-29%	0.8%	-6	1%	CC1Cc2cc(/C(O)=C3/C(=O)C(=O)N(CC4CCCO4)C3c3ccco3)ccc2O1 (stereo unspecified)
3%	5.7%	-1	0%	CC(=O)N1CCc2cc(S(=O)(=O)NCCC(=O)N3CCN(Cc4ccccc4)CC3)ccc21
-11%	-1.7%	-6	-6%	Cc1cccc(NS(=O)(=O)c2cnc[nH]2)c1
-14%	-0.2%	3	14%	COc1cccc(C(C#N)N2CCCCC2)c1O (stereo unspecified)
x	-2.5%	x	0%	COCCN(C(=O)COC(=O)COc1ccc2ccccc2c1)c1c(N)n(Cc2ccccc2)c(=O)[nH]c1=O
-19%	-1.2%	-2	-2%	CCOCC(=O)Nc1ccc2c(c1)OCCO2
20%	-1.1%	x	-22%	COc1ccc(S(=O)(=O)N(Cc2ccco2)Cc2cc3ccccc3[nH]c2=O)cc1
-3%	6.1%	-2	-8%	CCNC(=O)NC(=O)C(C)SCc1ccccc1C (stereo unspecified)
x	5.0%	0	17%	COc1cc(C2CC(=O)Oc3cc(O)ccc32)cc(OC)c1OC (stereo unspecified)

Full records as entered above. Order of values: miR-21 reporter, Rango-impB inh, GLA inh pH 4.5, Rango dissoc inh
Entry for CC(=O)N1CCc2cc(S(=O)(=O)NCCC(=O)N3CCN(Cc4ccccc4)CC3)ccc21 = 3%, 5.7%, -1, 0%
Entry for CC1Cc2cc(/C(O)=C3/C(=O)C(=O)N(CC4CCCO4)C3c3ccco3)ccc2O1 (stereo unspecified) = -29%, 0.8%, -6, 1%
Entry for Cc1nnc(SCC(=O)NC2CCS(=O)(=O)C2)n1Cc1ccccc1 (stereo unspecified) = -2%, 6.2%, 0[21.1 µM], 0%
Entry for CCNC(=O)NC(=O)C(C)SCc1ccccc1C (stereo unspecified) = -3%, 6.1%, -2, -8%
Entry for COc1ccc(S(=O)(=O)N(Cc2ccco2)Cc2cc3ccccc3[nH]c2=O)cc1 = 20%, -1.1%, x, -22%

(listing goes on)
miR-21 reporter	Rango-impB inh	GLA inh pH 4.5	Rango dissoc inh	mol
-42%	u	4	u	COc1cccc(N=c2oc3cc(O)ccc3cc2C(=O)NCC2CCCO2)c1 (stereo unspecified)
-4%	2.8%	5	6%	CCCN(CCO)Cc1cccc(Cl)c1
x	-0.3%	x	2%	CNS(=O)(=O)c1ccc(CCC(=O)N2CCOCC2)cc1
-53%	-4.3%	-2	-11%	O=c1c2cc(Br)ccc2nc2n1CCCCC2
0%	1.4%	4	-18%	O=C(/C=C/c1ccc(F)cc1)NC(Cc1c[nH]c2ccccc12)C(=O)O (stereo unspecified)
0%	-6.2%	8	-1%	CCc1ccccc1-n1c(-c2ccncc2)n[nH]c1=S
3%	0.9%	5	-6%	c1nnc(NC2=NCCC2)s1
x	-1.9%	x	-9%	CC(C)[C@H](NC(=O)c1ccccc1Cl)C(=O)OCC(=O)N1CCCCC1
u	-1.0%	0	6%	Cc1ccc(/C=C/C(O)=C2/C(=O)N(C)C3(C)CC2c2ccccc2O3)cc1 (stereo unspecified)
-4%	0.4%	1	-14%	O=C(NCCN1CCCCC1)c1ccc(=O)oc1
-9%	-2.3%	-4	-18%	O=C(N1CCOCC1)C12CCC3CC(CC(C3)C1)C2
